Screening results deposited in PubChem by Johns Hopkins Ion Channel Center.
KCNQ2 block: KCNQ2 channel blockers in CHO-K1 cells – cell-based, FluxOR thallium flux, B-score, primary screen (AID 2156). 310,000 compounds, 1.1% hits. 20 min; hits give low values; only compounds with negative scores are shown here; some inactives read as strong as hits. B-score at 10 µM;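 active = fluorescence ratio B-score at most minus 3 library SDs, with starting brightness B-score within 2 library SDs, cut at about -5.5 in these data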
Target sequence (O88943 whole entry, looked up): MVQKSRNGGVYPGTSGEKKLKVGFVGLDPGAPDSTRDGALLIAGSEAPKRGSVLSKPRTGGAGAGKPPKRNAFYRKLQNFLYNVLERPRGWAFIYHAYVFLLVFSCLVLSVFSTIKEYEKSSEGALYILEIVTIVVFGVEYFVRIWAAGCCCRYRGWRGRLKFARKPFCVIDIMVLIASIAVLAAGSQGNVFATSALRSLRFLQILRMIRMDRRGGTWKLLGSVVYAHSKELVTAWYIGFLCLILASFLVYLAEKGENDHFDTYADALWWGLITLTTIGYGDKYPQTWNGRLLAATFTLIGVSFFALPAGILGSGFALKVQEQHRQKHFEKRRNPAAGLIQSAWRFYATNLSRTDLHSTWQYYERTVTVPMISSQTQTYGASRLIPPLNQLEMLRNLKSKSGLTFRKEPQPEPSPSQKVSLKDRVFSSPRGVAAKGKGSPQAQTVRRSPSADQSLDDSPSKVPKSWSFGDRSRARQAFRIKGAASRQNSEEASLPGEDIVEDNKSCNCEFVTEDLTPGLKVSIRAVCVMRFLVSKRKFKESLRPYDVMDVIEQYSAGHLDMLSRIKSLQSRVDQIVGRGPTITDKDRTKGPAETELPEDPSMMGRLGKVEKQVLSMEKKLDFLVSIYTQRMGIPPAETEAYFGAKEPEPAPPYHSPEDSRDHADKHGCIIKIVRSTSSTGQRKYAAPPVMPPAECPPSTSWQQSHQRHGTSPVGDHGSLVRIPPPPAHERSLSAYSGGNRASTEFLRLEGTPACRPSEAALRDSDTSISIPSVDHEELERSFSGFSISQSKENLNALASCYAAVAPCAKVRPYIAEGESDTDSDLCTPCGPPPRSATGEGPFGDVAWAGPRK
KCNQ2 block baseline: further read-out of KCNQ2 block, marked with its call; B-score; measured here: initial fluorescence intensity artifact check;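 brightness before thallium and not channel activity; 0 = typical well and far values either way flag optical interference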
* marks the source's active call; other numbers are inactive results; i = inactive. Some of the compounds tested. The share of hits here may be higher or lower than overall.

SMILES | KCNQ2 block | KCNQ2 block baseline
CC1(C(=O)O)Oc2cccnc2NC1=O (stereo unspecified) | i | 1.25
COc1cc(C2=NOC(C(=O)NCc3cccs3)C2)cc(OC)c1OC (stereo unspecified) | i | -0.28
CN(CC(=O)Nc1ccc2c(c1)CCC2)CC(=O)Nc1ccccc1Br | i | -0.8
O=C(COc1coc(CN2CCN(c3ccccc3F)CC2)cc1=O)NC1CCCC1 | i | 0.5
Cc1ccc(CSCCNC(=O)CN(c2cccc([N+](=O)[O-])c2)S(C)(=O)=O)cc1 | i | -0.03
Cc1nc2ccccc2c(=O)n1NC(=O)c1ccccc1Br | i | 0.08
CN(CCc1ccccn1)C(=O)CCC1CCCN(C(=O)c2ccc3c(c2)OCCO3)C1 (stereo unspecified) | i | 2.6
O=S(=O)(NCCSCc1c(Cl)cccc1Cl)c1ccc2c(c1)OCCO2 | -6.85* | -0.22*
Cc1ccc(NC(=S)NCc2ccc(Cl)cc2)c(OC(F)F)c1 | i | -0.2
Cc1ccc2nc(N(CCCN(C)C)C(=O)c3cc(-c4cccs4)nc4ccccc34)sc2c1 | i | 0.67
COc1ccc(N2CC(NC(=O)Nc3ccccc3)CC2=O)cc1 (stereo unspecified) | i | 0.04
O=C1c2oc3ccc(Cl)cc3c(=O)c2C(c2ccccn2)N1CCCN1CCOCC1 (stereo unspecified) | i | -0.01
COc1cc(/C=C2\SC(=S)N(Nc3ccccc3)C2=O)ccc1O | i | 0.18
Cc1ccc(S(=O)(=O)Nc2ccc(S(=O)(=O)Nc3ncccn3)cc2)cc1 | i | 1.98
Cc1ccc(-c2cc(NC(=O)CSc3n[nH]c(N)n3)n(-c3ccccc3)n2)cc1 | i | -3.04
Fc1cccc(/C=N/Nc2ccccn2)c1 | i | 0.72
O=C(NCCCn1ccnc1)c1ccc(Cl)s1 | i | 2.26
Fc1ccccc1/C=C1\CCCC2=C1NC(=S)NC2c1ccccc1F (stereo unspecified) | i | 1.76
Cc1oc(CC(C)C)cc1C(=O)Nc1ccc(C(=O)O)cc1 | i | -2.98
CCC(Oc1ccccc1F)C(=O)NCCCn1ccnc1 (stereo unspecified) | i | 1.13
Cc1cc(C)n(-c2nnc(NC34CC5CC(CC(C5)C3)C4)nn2)n1 | i | 2.08
COc1ccc(C(=O)N2CCCC2)cc1S(=O)(=O)N1CCC(C)CC1 | i | -0.15
CCC(=O)NC(c1ccccc1)c1c(O)ccc2ccccc12 (stereo unspecified) | i | 0.13
O=C(CCc1ccccc1)NCC(=O)N/N=C/c1ccc(O)cc1O | i | -0.71
O=C(CSc1nncc2ccccc12)Nc1cccc(O)c1 | i | -0.58
SMILES | KCNQ2 block | KCNQ2 block baseline
CCOC(=O)N1CCN(c2ccncc2S(=O)(=O)N2CCCCC2)CC1 | i | -2.07
Cc1oc(CSCCSCc2cc(C(=O)O)c(C)o2)cc1C(=O)O | i | -0.21
CC(C)Cn1c(N2CCN(C(=O)c3cccs3)CC2)nc2ccccc21 | i | 0.32
COc1cc(CNC(C)c2ccccc2)cc(Cl)c1OCC(=O)Nc1ccccc1 (stereo unspecified) | i | 0.09
CC(C)CCN(CC(=O)NCc1ccc(F)cc1)S(=O)(=O)c1ccccc1F | i | 0.81
COc1ccc(C2=NN(C(=O)c3ccco3)C(c3cc4ccccc4nc3Cl)C2)cc1 (stereo unspecified) | i | -0.13
O=c1[nH]c(SCCOc2cccc3ccccc23)nc2ccccc12 | i | 0.54
CCNC(=O)C1CN(S(=O)(=O)c2ccccc2)CCN1S(=O)(=O)c1ccccc1 (stereo unspecified) | i | 0.02
N#C/C(=C1\C(=O)Nc2c(Cl)cc(Cl)cc21)c1nnc2n1CCCCC2 | i | -0.89
Cc1ccccc1CNC(=O)C(=O)NCCC1CCCCN1S(=O)(=O)c1cccs1 (stereo unspecified) | i | -1.52
CCOC(=O)c1ccc(NC(=O)c2cc(S(=O)(=O)N3CCOCC3)cn2C)cc1 | i | -1.32
COC(=O)C1=C(N)Oc2cc(N(C)C)ccc2C1c1ccccc1OC (stereo unspecified) | i | 3.74
O=C(/C=C/c1ccc(Br)o1)Nc1nnc(C2CC2)s1 | i | 0.06
CC(C)(C)c1ccc(NC(=O)CSc2n[nH]c(=O)n2-c2cccnc2)cc1 | i | -1.31
CCN(CC)S(=O)(=O)c1ccc2c(c1)nc(CCC(=O)Nc1ccccc1Cc1ccccc1)n2CC | i | 0.58
CC1CCN(C(=O)c2cc3nc(-c4ccccc4)cc(-c4ccccc4)n3n2)CC1 | -7.84* | -0.22*
Cc1cc(OCCCCn2ccnc2)cc(C)c1Cl | i | 2.14
Cc1ccc(S(=O)(=O)N2CCN(C(=O)c3ccc(-n4cncn4)c([N+](=O)[O-])c3)CC2)cc1 | i | 0.7
CCCCOP(=O)(c1ccc(N(C)C)cc1)C(O)c1ccc(OC)c(OC)c1 (stereo unspecified) | i | 0.38
CSc1nc(-c2ccco2)nn1S(=O)(=O)c1ccc(C)cc1 | i | 1.41
CCC1(c2ccc(F)cc2)NC(=O)N(CC(=O)Nc2ccc(S(N)(=O)=O)cc2)C1=O (stereo unspecified) | i | -1.09
CCOC(=O)CCn1cnc2ccc([N+](=O)[O-])cc2c1=O | i | 0.67
CCOc1cc(/C=N/NC(=O)CN2CCCCC2)ccc1OCc1cccc(Cl)c1 | i | -0.74
CCNC(=O)CSc1nnc(-c2ccccc2)n1-c1ccc(OCC)cc1 | i | 0.73
COC(=O)CSc1nc2ccccn2c(=O)c1C=O | i | 0.61
SMILES | KCNQ2 block | KCNQ2 block baseline
Cn1c(=O)c2c(nc(N3CCCCC3)n2CCSc2nc3ccccc3s2)n(C)c1=O | i | 1.04
C=CCNC(=O)c1cc(-c2ccncc2)nc2c(C)cc(C)cc12 | i | -1.18
COc1ccc(C2CCCN2C(=S)Nc2ccc(C)cc2Cl)cc1OC (stereo unspecified) | i | 0.66
O=c1[nH]cnc2[nH]ncc12 | i | -1.62
CC(C)c1ccc(NC(=O)[C@H](NC(=O)[C@@H]2Cc3ccccc3CN2)c2ccccc2)cc1 | i | -0.53
O=c1[nH]c(SCc2n[nH]c(=S)n2-c2ccccc2)nc2sc3c(c12)CCC3 | i | 1.92
Cc1cc(C)c(NC(=S)NC(NC(=O)c2ccccc2)C(Cl)(Cl)Cl)c(C)c1 (stereo unspecified) | i | 0.04
C=CCNC(=S)N/N=C/c1ccc(C(F)(F)F)cc1 | i | -0.11
Cc1cccc(C)c1NC(=S)N1CCCCCC1 | i | -0.14
C=CCn1c(SCC(=O)Nc2nc3ccccc3s2)nnc1-c1ccccc1O | i | -0.41
Nc1ccc2oc(C3CCCCC3)nc2c1 | i | 0.84
COc1ccccc1-n1cnc2sc(-c3ccccc3)cc2c1=O | i | -1.42
O=C(c1cccs1)N1CCN(C2CCN(Cc3ccccc3)CC2)CC1 | i | 0.29
O=C(Cc1ccc(F)cc1)N1CCOCC1 | i | -1.61
COc1ccccc1CN(C)C(=O)C(c1ccccc1)c1ccccc1 | -5.63* | 0.02*
O=C(NCCCn1ccnc1)C(=O)Nc1ccccc1 | i | 3.09
O=C(COC(=O)c1cc([N+](=O)[O-])ccc1N1CCOCC1)NCc1ccc(Cl)cc1Cl | i | -1.41
NS(=O)(=O)c1ccc(CNS(=O)(=O)c2ccc3ccccc3c2)cc1 | i | -0.02
CC(=O)Nc1ccc(S(=O)(=O)NC(C(=O)O)C(C)C)cc1 (stereo unspecified) | i | -0.27
c1ccc(Cn2nc(-c3ccccc3)nc2-c2ccccc2)cc1 | i | -2.41
O=C(CCC(=O)Nc1ccc(F)cc1)N/N=C/c1cccs1 | i | 3.49
COc1cc(CN2CCC(CO)(Cc3cccc(C(F)(F)F)c3)CC2)ccc1F | i | -0.34
O=C(NCCCN1CCCC1=O)C1CCC(CNS(=O)(=O)c2ccc(Cl)cc2)CC1 (stereo unspecified) | i | -2.38
CCOC(=O)c1ccccc1NC(=O)Nc1ccc(OC)c(OC)c1 | i | -0.01
O=C(NCCc1ccccc1)C(=O)NCC1OCCCN1S(=O)(=O)c1cccs1 (stereo unspecified) | i | -0.14

Shown as comma-separated lines: part of the list above
SMILES,KCNQ2 block,KCNQ2 block baseline
O=C(CCC(=O)Nc1ccc(F)cc1)N/N=C/c1cccs1,i,3.49
COc1cc(CN2CCC(CO)(Cc3cccc(C(F)(F)F)c3)CC2)ccc1F,i,-0.34

(cont.)
SMILES | KCNQ2 block | KCNQ2 block baseline
O=C(COCC(=O)N/N=C/c1ccc(F)cc1)N/N=C/c1ccc(F)cc1 | i | 0.94
CN(C)CCNc1c2c(nc3ccccc13)CCC2 | i | 0.03
COCCNC(=O)/C(C#N)=c1\s/c(=C\c2ccccc2OC(F)F)c(=O)n1Cc1ccccc1 | i | 0.01
O=C(Nc1nccs1)c1ccc2c(c1)OCO2 | i | 0.48
Cn1c(N)c(C(=O)NCc2ccccc2Cl)sc1=S | i | -0.4
S=C(NCc1ccccc1)NCc1cccc(Cl)c1 | i | -1.01
CCCCNC(=S)N/N=C/c1ccc(OCC(=O)Nc2c(C)cc(C)cc2C)c(OC)c1 | i | -1.53
Cc1ccc(N(CC(O)CON=C2c3ccccc3-c3ccccc32)S(C)(=O)=O)cc1 (stereo unspecified) | i | -0.57
CCOc1cc(N2CCOCC2)c(OCC)cc1NC(=O)COc1ccc2ccc(=O)oc2c1 | i | -0.12
CCC(C)NS(=O)(=O)c1ccc(NC(C)=O)cc1 (stereo unspecified) | i | 0.02
CCCCC(=O)C1CCN(Cc2ccccc2)CC1 | i | 0.06
CC(C)NC(=O)CN(C(=O)CCC(=O)Nc1ccccn1)c1ccc(F)c(Cl)c1 | i | -3.02
S=c1[nH]nc(Nc2ccccc2)s1 | i | 0.1
CCOC(=O)c1c(NC(=O)CN2CCCc3ccccc32)sc(C)c1CC | i | 0.1
COc1ccc(-c2c(C)nn(Cc3ccccc3)c2N)cc1 | i | -1.23
O=C(CCCN1C(=O)C(c2ccccc2)Oc2cccnc21)NCc1ccccc1Cl (stereo unspecified) | i | 0.87
CCSc1nnc(NC(=O)CSC2=NCCS2)s1 | i | 1.4
COc1cc(C=O)ccc1OCCCOc1ccccc1C(=O)O | i | 1.84
Cc1cc(O)c(Sc2ccccc2)c(=O)o1 | i | -0.1
Cc1nc2ccccc2c(=O)n1NC(=O)c1ccccc1[N+](=O)[O-] | i | -1.34
O=S(=O)(Nc1cccnc1)c1cccc(Cl)c1 | i | 1.05
CN1CCC(N(C)S(=O)(=O)c2ccc(C(C)(C)C)cc2)CC1 | i | 0.56
Cc1ccc2c(C(=O)CSc3ccccc3)c(C)[nH]c2c1 | i | 0.74
COc1ccc(N(C(=O)c2ccco2)S(=O)(=O)c2cc(Cl)c(Cl)cc2Cl)cc1 | i | 1.06
CC(=O)c1cccc(CN2CCN(CC(C)C)C(CCO)C2)c1 (stereo unspecified) | i | 1.09
SMILES | KCNQ2 block | KCNQ2 block baseline
COc1ccc(C(=O)NC(C)(C)C)cc1S(=O)(=O)N1CCCC1 | i | -1.33
COc1ccc(CN2CC(C(=O)NCCCN3CCOCC3)CC2=O)cc1 (stereo unspecified) | i | -0.56
COc1ccc(C(c2sc3nc(C)nn3c2O)N2CCN(CCO)CC2)cc1OC (stereo unspecified) | i | -0.52
CN(C)CCCNC(=O)C(=O)Nc1ccc2c(c1)N(S(=O)(=O)c1cccs1)CCC2 | i | 2.07
S=c1[nH]c2ccccc2n2cccc12 | i | 0.02
N#Cc1c(Cl)nc(-c2ccncc2)nc1-c1ccccc1 | i | 2.16
CCOc1ccc2nc(NC(=O)Cc3cccs3)sc2c1 | i | 0.08
O=C(Nc1nnc(-c2ccccc2)s1)c1ccccc1F | i | -0.81
Cc1ccc(C)c(S(=O)(=O)N2CCN(CC(=O)Nc3ccc4c(c3)OCCO4)CC2)c1 | i | 0.88
Cc1cc(OCC(=O)NC(Cc2ccc(Cl)cc2)C(=O)O)c2c(C)cc(=O)oc2c1 (stereo unspecified) | i | 0.26
O=C(NCC1CCCN1S(=O)(=O)c1cccs1)c1c(F)cccc1F (stereo unspecified) | i | -0.4
CCOc1ccc(CCNC(=O)c2cc(C)nn2-c2ccccc2)cc1 | i | -0.18
CCOC(=O)CNC(=O)C(CO)NC(=O)OCc1ccccc1 (stereo unspecified) | i | 1.18
CC(C)(CNC(=O)c1cccs1)CNC(=O)c1cccs1 | i | 0.04
O=C(COc1cccc2ccccc12)NCc1cccnc1 | i | 0.39
CC1CN(Cc2ccccc2)C(C)CC1O (stereo unspecified) | i | 0.33
CSc1ccc(CCNC(=O)CCc2nnc3ccc(N4CCC5(CC4)OCCO5)nn23)cc1 | i | 0.33
COc1ccc(C(=O)NC(C(=O)NCCc2ccc3c(c2)OCCO3)C(C)C)cc1 (stereo unspecified) | i | 1.52

Among those listed so far, these contain an aryl thioether with sulfur outside any ring:
SMILES | KCNQ2 block | KCNQ2 block baseline
Cc1ccc(-c2cc(NC(=O)CSc3n[nH]c(N)n3)n(-c3ccccc3)n2)cc1 | i | -3.04
O=C(CSc1nncc2ccccc12)Nc1cccc(O)c1 | i | -0.58
O=c1[nH]c(SCCOc2cccc3ccccc23)nc2ccccc12 | i | 0.54
CC(C)(C)c1ccc(NC(=O)CSc2n[nH]c(=O)n2-c2cccnc2)cc1 | i | -1.31
CSc1nc(-c2ccco2)nn1S(=O)(=O)c1ccc(C)cc1 | i | 1.41
CCNC(=O)CSc1nnc(-c2ccccc2)n1-c1ccc(OCC)cc1 | i | 0.73
COC(=O)CSc1nc2ccccn2c(=O)c1C=O | i | 0.61
Cn1c(=O)c2c(nc(N3CCCCC3)n2CCSc2nc3ccccc3s2)n(C)c1=O | i | 1.04
O=c1[nH]c(SCc2n[nH]c(=S)n2-c2ccccc2)nc2sc3c(c12)CCC3 | i | 1.92
C=CCn1c(SCC(=O)Nc2nc3ccccc3s2)nnc1-c1ccccc1O | i | -0.41
CCSc1nnc(NC(=O)CSC2=NCCS2)s1 | i | 1.4
Cc1cc(O)c(Sc2ccccc2)c(=O)o1 | i | -0.1
Cc1ccc2c(C(=O)CSc3ccccc3)c(C)[nH]c2c1 | i | 0.74
CSc1ccc(CCNC(=O)CCc2nnc3ccc(N4CCC5(CC4)OCCO5)nn23)cc1 | i | 0.33
